VDR inh: inhibitors of human vitamin D receptor | 0.93% of 400,000 active | VDR-SRC2-3 peptide fluorescence polarization, 2 h | AID 504847 | P11473 | Potency, µM, for the others: max response, negative = inhibition, most hits filed as inhibitors; active = well fitted inhibition curve with a large enough effect; inconclusive = small, poorly fitted or top-dose-only effect, or another doubt; inactive = no such curve, though single readings can be large or run the other way; note: series mostly up to about 120 µM
Target sequence (P11473 whole entry, looked up): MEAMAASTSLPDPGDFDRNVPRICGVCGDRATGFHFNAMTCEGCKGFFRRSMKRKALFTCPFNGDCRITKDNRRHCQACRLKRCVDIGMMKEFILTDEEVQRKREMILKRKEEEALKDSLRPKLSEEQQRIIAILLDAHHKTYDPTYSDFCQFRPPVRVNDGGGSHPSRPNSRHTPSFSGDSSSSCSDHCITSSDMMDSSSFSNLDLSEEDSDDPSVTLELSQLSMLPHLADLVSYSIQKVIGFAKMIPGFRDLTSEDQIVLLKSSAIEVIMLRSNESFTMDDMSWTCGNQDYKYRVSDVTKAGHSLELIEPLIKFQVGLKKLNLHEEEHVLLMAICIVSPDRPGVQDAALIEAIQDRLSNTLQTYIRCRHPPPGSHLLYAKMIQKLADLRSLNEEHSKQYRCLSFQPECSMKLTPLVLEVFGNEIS
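Signal is fluorescence polarization, reporting how far test compounds block the interaction of VDR with the SRC2-3 coregulator peptide after a 2 h room-temperature incubation.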
The depositor's hits bear a star. % is set by controls: 0 for no effect and ±100 for the full control effect; potency is the fitted concentration of half-maximal effect.

How did Cc1noc(C)c1C(=O)N1CCN(Cc2ccc3c(c2)OCO3)CC1 do in these assays?
VDR inh: 5.6%

Results for COc1cccc(/C=C/C(=O)NNC(=O)c2cc(C)oc2C)c1 ?
VDR inh: -7.0%

What do the screens show for `COc1ccc(C(=O)NNC(=O)C2CCN(S(=O)(=O)c3ccc(C)cc3)CC2)cc1`?
VDR inh: -6.9%

What do the screens show for `COc1ccc(N=C2NN=C(c3ccc4c(c3)OCCO4)CS2)cc1`?
VDR inh: -9.8%

What do the screens show for `COc1ccc(/C=C2\SC(=S)N(CCCC(=O)N3CCOCC3)C2=O)cc1`?
VDR inh: -26.9%

What do the screens show for `Cc1nc2ccc(Br)cc2c(-c2ccccc2)c1C(=O)O`?
VDR inh: -1.1%

How did Cc1ccc(S(=O)(=O)CCC(=O)OCC(=O)c2ccc(C)c(C)c2)cc1 do in these assays?
VDR inh: -8.7%

How did CC(=O)N1c2ccc(S(=O)(=O)N3CCC(C(=O)N4CCN(c5ccccc5F)CC4)CC3)cc2CC1C (stereo not drawn) do in these assays?
VDR inh: -5.8%

What do the screens show for `CC1CCCCN1Cc1ccc(-c2nn[nH]n2)cc1` (stereo not drawn)?
VDR inh: -8.8%

What do the screens show for `CC(C)CN1C(=O)c2ccc(C(=O)Nc3ccc(O)cc3C(=O)O)cc2C1=O`?
VDR inh: -9.1%

Results for Cn1ncc(N)c1C(=O)Nc1cccc(C(F)(F)F)c1 ?
VDR inh: -5.1%

How did CCc1ccc(NC(=O)c2ccc3c(=O)n4c(nc3c2)CCCCC4)cc1 do in these assays?
VDR inh: -13.5%

What do the screens show for `O=C(COC(=O)c1cccc(O)c1)Nc1ccc(OC(F)F)cc1`?
VDR inh: 2.3%

What do the screens show for `CC(=O)N1CCN(c2ccccc2NC(=O)c2ccc(-c3cccc([N+](=O)[O-])c3)o2)CC1`?
VDR inh: -22.0%

How did Cc1ccc(NC(=O)CSc2nnc(-c3cc(C)[nH]n3)n2N)cc1 do in these assays?
VDR inh: 6.3%

What do the screens show for `CC1(C)CC(=O)C([N+](=O)[O-])=C(NCCCO)C1`?
VDR inh: -1.9%

How did CCn1c2ccccc2c2nc3ccccc3nc21 do in these assays?
VDR inh: -10.5%

How did C[C@@H](C(=O)Nc1ccc2ccccc2c1)[C@H]1C[C@]1(C)[C@H](NC(=O)c1cnccn1)c1ccccc1 do in these assays?
VDR inh: -13.9%

Results for COC(=O)CSc1nnc(-c2ccoc2C)n1-c1ccc(OC)cc1 ?
VDR inh: 8.5%

How did CC1CCC(C(=O)NC(C(=O)Nc2ccccn2)C(C)C)CC1 (stereo not drawn) do in these assays?
VDR inh: -3.3%

16 entries out of the list, sorted by SMILES length, lowest first:
How did CCn1c2ccccc2c2nc3ccccc3nc21 do in these assays?
VDR inh: -10.5%

Results for Cn1ncc(N)c1C(=O)Nc1cccc(C(F)(F)F)c1 ?
VDR inh: -5.1%

What do the screens show for `Cc1nc2ccc(Br)cc2c(-c2ccccc2)c1C(=O)O`?
VDR inh: -1.1%

What do the screens show for `CC1(C)CC(=O)C([N+](=O)[O-])=C(NCCCO)C1`?
VDR inh: -1.9%

How did CC1CCC(C(=O)NC(C(=O)Nc2ccccn2)C(C)C)CC1 (stereo not drawn) do in these assays?
VDR inh: -3.3%

Results for COC(=O)CSc1nnc(-c2ccoc2C)n1-c1ccc(OC)cc1 ?
VDR inh: 8.5%

What do the screens show for `COc1ccc(N=C2NN=C(c3ccc4c(c3)OCCO4)CS2)cc1`?
VDR inh: -9.8%

How did Cc1noc(C)c1C(=O)N1CCN(Cc2ccc3c(c2)OCO3)CC1 do in these assays?
VDR inh: 5.6%

How did Cc1ccc(NC(=O)CSc2nnc(-c3cc(C)[nH]n3)n2N)cc1 do in these assays?
VDR inh: 6.3%

How did CCc1ccc(NC(=O)c2ccc3c(=O)n4c(nc3c2)CCCCC4)cc1 do in these assays?
VDR inh: -13.5%

What do the screens show for `COc1ccc(/C=C2\SC(=S)N(CCCC(=O)N3CCOCC3)C2=O)cc1`?
VDR inh: -26.9%

What do the screens show for `CC(C)CN1C(=O)c2ccc(C(=O)Nc3ccc(O)cc3C(=O)O)cc2C1=O`?
VDR inh: -9.1%

What do the screens show for `COc1ccc(C(=O)NNC(=O)C2CCN(S(=O)(=O)c3ccc(C)cc3)CC2)cc1`?
VDR inh: -6.9%

What do the screens show for `CC(=O)N1CCN(c2ccccc2NC(=O)c2ccc(-c3cccc([N+](=O)[O-])c3)o2)CC1`?
VDR inh: -22.0%

How did CC(=O)N1c2ccc(S(=O)(=O)N3CCC(C(=O)N4CCN(c5ccccc5F)CC4)CC3)cc2CC1C (stereo not drawn) do in these assays?
VDR inh: -5.8%

How did C[C@@H](C(=O)Nc1ccc2ccccc2c1)[C@H]1C[C@]1(C)[C@H](NC(=O)c1cnccn1)c1ccccc1 do in these assays?
VDR inh: -13.9%

Carrying on.
Results for CCCC(=O)c1cc2ccccc2oc1=O ?
VDR inh: -17.8%

What do the screens show for `COc1ccc(CNC(=O)c2ccc(-c3nc(CSc4ccc(C)cc4)c(C)o3)cc2)c(OC)c1`?
VDR inh: 13.5%

What do the screens show for `CCOC(=O)N1CCC(N2CCN(Cc3ccc(F)c(F)c3)C(CCO)C2)CC1` (stereo not drawn)?
VDR inh: -12.1%

How did CCOC(=O)N1CCN(C(=S)Nc2ccccc2C(C)C)CC1 do in these assays?
VDR inh: 13.3%

What do the screens show for `COc1ccc(NC(=S)N2CCC(c3ccccc3)C2)cc1` (stereo not drawn)?
VDR inh: 13.1%

How did CCN(CC)CCNCC(=O)N1c2ccccc2CCc2ccc(NC(=O)OC)cc21 do in these assays?
VDR inh: -11.0%

How did Cc1ccccc1C(=O)NC(CC(C)C)C(=O)OCC(=O)c1c(N)n(C)c(=O)n(C)c1=O (stereo not drawn) do in these assays?
VDR inh: -14.8%

How did COc1ccc(CN2CC(C(N)=O)Oc3ccccc32)cc1F (stereo not drawn) do in these assays?
VDR inh: -9.7%

What do the screens show for `Cc1c(Cl)cccc1NC(=O)C(C)n1nc(C)c2c(C)n(-c3ccccc3)nc2c1=O` (stereo not drawn)?
VDR inh: 14.6%

Results for CCOc1ccccc1-c1nnc(SCC(=O)NC2(C#N)CCCC2)o1 ?
VDR inh: 15.7%

Results for O=C(Nc1nc2c(F)cc(F)cc2s1)c1ccccn1 ?
VDR inh: -1.3%

Results for CCOP(=O)(OCC)C(Nc1cccc([N+](=O)[O-])c1)c1ccccc1 (stereo not drawn) ?
VDR inh: -19.1%

Results for [O-]/C(=C(\C(=S)NCc1ccc2c(c1)OCO2)[n+]1ccccc1)c1ccc(Cl)s1 ?
VDR inh: inconclusive

Results for CCOc1ccccc1C(=O)NCC(=O)NCCCc1ccccc1 ?
VDR inh: -6.2%

How did CCN(C(=O)CSc1nc2ccc(Cl)cc2[nH]1)C1CCS(=O)(=O)C1 (stereo not drawn) do in these assays?
VDR inh: -3.5%

Results for O=C(CO/N=C/c1ccc(OC(F)F)cc1)NCc1ccc(F)cc1 ?
VDR inh: -4.9%

What do the screens show for `CN1CCN(C(=O)c2cc(-c3ccco3)on2)CC1`?
VDR inh: -0.8%

Results for COc1ccccc1C(=O)N/C(N)=N/c1nc2ccccc2o1 ?
VDR inh: 3.2%

Results for Cc1ccccc1N1CCN(CCN2C(=O)CC(=C3c4ccccc4-c4ccccc43)C2=O)CC1 ?
VDR inh: -3.5%

Results for COc1ccccc1Cn1cc(C(=O)c2ccc(Cl)cc2)c(=O)c2cc3c(cc21)OCCO3 ?
VDR inh: 11.0%

Nothing new here: an excerpt of the list.
Results for O=C(Nc1nc2c(F)cc(F)cc2s1)c1ccccn1 ?
VDR inh: -1.3%

Results for CCOP(=O)(OCC)C(Nc1cccc([N+](=O)[O-])c1)c1ccccc1 (stereo not drawn) ?
VDR inh: -19.1%

Continuation.
Results for COCC(=O)N(CCc1ccc(OC)c(OC)c1)Cc1cc2cc(C)ccc2nc1Cl ?
VDR inh: -9.7%

Results for Nc1cc(C(=O)OCC(=O)NCc2ccc(F)cc2)ccc1Cl ?
VDR inh: -0.2%

What do the screens show for `CC(C)C[C@@H](CC(=O)N[C@@H](CCCN)CC(=O)N[C@@H]1CCNC[C@H]1C(=O)N[C@H](CC(=O)N[C@@H](CCC(=O)O)CC(=O)O)Cc1ccccc1)NC(=O)[C@@H]1CNCC[C@H]1N`?
VDR inh: 3.1%

Results for CCN(Cc1ccccc1)C(=O)CSc1ccccc1C(=O)O ?
VDR inh: -25.5%

What do the screens show for `Cc1ccc(NC(=S)N(Cc2cccc(Br)c2)CC2CCC(C(=O)O)CC2)cc1` (stereo not drawn)?
VDR inh: -17.1%

How did COc1cc(NS(=O)(=O)c2cccc3nsnc23)c(C(=O)O)cc1OC do in these assays?
VDR inh: -13.1%

How did NS(=O)(=O)c1ccc(CCNC(=O)CNC(=O)c2ccccc2Br)cc1 do in these assays?
VDR inh: 13.0%

What do the screens show for `Fc1ccc(NC(=S)Nc2ccc(Cl)cc2)cc1`?
VDR inh: 4.7%

How did CC(Sc1nnc(C2CCCCC2)n1N)C(=O)NCc1ccc2c(c1)OCO2 (stereo not drawn) do in these assays?
VDR inh: 12.3%

How did Cc1cc(C)c(NC(=O)CNC(=O)COC(=O)/C=C/c2cccs2)c(C)c1 do in these assays?
VDR inh: 14.2%

Results for Cc1c(C)n(CCO)c2ncnc(Nc3ccc(F)cc3)c12 ?
VDR inh: 4.6%

How did CSCC[C@H](N)C(=O)N[C@@H](CCCN=C(N)N)C(=O)N[C@@H](Cc1ccccc1)C(=O)N[C@@H](Cc1ccccc1)C(=O)N[C@H](C(=O)O)C(C)C do in these assays?
VDR inh: -3.8%

Results for O=C(O)c1ccc(NNC(=S)Nc2cc(C(F)(F)F)ccc2Cl)cc1 ?
VDR inh: 22.4µM*

Results for CCC1=C(OC(=O)N(CC)CC)N2C(=O)OC(=NCc3ccccc3)[C@]2(C)[C@H]2C1=CC[C@H]1C(=O)NC(=O)[C@H]12 ?
VDR inh: -7.4%

What do the screens show for `Cc1ccc(CNC(=O)C2CCCN(c3nnc(-n4c(C)ccc4C)s3)C2)cc1` (stereo not drawn)?
VDR inh: 17.0%

How did O=C(Nc1ccc(NC(=O)c2ccc([N+](=O)[O-])cc2[N+](=O)[O-])cc1)c1ccco1 do in these assays?
VDR inh: -9.3%

What do the screens show for `Cc1c(NC(=O)c2cc(-c3cccs3)on2)c(=O)n(-c2ccccc2)n1C`?
VDR inh: -4.2%

What do the screens show for `CO/N=C(/CS(=O)(=O)c1ccc(Br)cc1)c1ccc(OC)cc1`?
VDR inh: -18.1%

How did CCc1cccc2c1NC(=O)C21N2CCCC2C(C(=O)c2ccc3ccccc3c2)C12C(=O)Nc1ccccc12 (stereo not drawn) do in these assays?
VDR inh: -11.5%

What do the screens show for `C#CCOCCOCCOCCNc1nc(N2CCN(C(=O)C([C@@H](C)O)n3cc([C@@H](N)CCCCN)nn3)CC2)nc(N2CCN(C(=O)[C@H](CC(N)=O)n3cc(C(N)[C@@H](C)CC)nn3)CC2)n1` (stereo partly drawn)?
VDR inh: -2.9%

What do the screens show for `N#Cc1c(NCCCO)nc(NCc2ccccc2)c2c1CCN(Cc1ccccc1)C2`?
VDR inh: 11.2%

Results for CCN(CC)CCn1c(=N)n(CCOc2ccccc2)c2ccccc21 ?
VDR inh: 2.0%

Results for O=C(O)C(CC1CCCCC1)N1CCS(=O)(=O)CC1 (stereo not drawn) ?
VDR inh: 13.5%

What do the screens show for `Cn1cccc1C1C(C#N)=C(N)OC2=C1C(=O)CC(C)(C)C2` (stereo not drawn)?
VDR inh: 1.1%

Results for Cc1ccc(/C=N/NC(=O)CNC(=O)c2cccc([N+](=O)[O-])c2C)o1 ?
VDR inh: -14.7%

Results for O=C(CCOc1ccccc1)Nc1nnc(-c2ccc3c(c2)OCCO3)o1 ?
VDR inh: -5.0%

How did COc1ccc(C(=O)CN2C(=O)NC3(CCc4ccccc43)C2=O)c(OC)c1 (stereo not drawn) do in these assays?
VDR inh: -19.7%

What do the screens show for `CCN(CC)S(=O)(=O)c1cccc(NC(=O)c2ccc(Br)cc2)c1`?
VDR inh: -3.4%

Results for CC(=O)N(Cc1ccco1)C1(C(=O)NC2CCCCC2)CCCCC1 ?
VDR inh: -12.0%

What do the screens show for `COc1ccc(-n2c(=O)c(-c3ccc(F)cc3)nc3cnc(OC)nc32)cc1`?
VDR inh: -3.6%

How did O=C1C=C(NCc2ccccc2)C2(CCCCC2)O1 do in these assays?
VDR inh: -6.5%

What do the screens show for `Cc1sc2ncnc(NCCN3CCOCC3)c2c1C`?
VDR inh: -14.0%

What do the screens show for `C=CCC(=O)NC1CC(C)(C)Cc2c1cnn2-c1ccc(C)cc1` (stereo not drawn)?
VDR inh: -12.2%

Results for Cc1ccccc1N1CCN(Cc2ccc([N+](=O)[O-])o2)CC1 ?
VDR inh: -4.1%

Results for Cc1cccc(NC(=O)Cn2c(=O)n(Cc3ccc4c(c3)OCO4)c(=O)c3ccccc32)c1 ?
VDR inh: -0.9%

What do the screens show for `Cc1ccc(C)c(OC(=O)CN2C(=O)c3ccccc3C2=O)c1`?
VDR inh: -10.0%

Results for O=C(NC(=S)N1CCOCC1)c1ccc([N+](=O)[O-])cc1 ?
VDR inh: -10.4%

Results for O=C(CCc1ccc(S(=O)(=O)N2CCOCC2)cc1)Nc1ccc(F)c(F)c1F ?
VDR inh: 2.5%

What do the screens show for `COc1cc(CN(C(=O)Nc2cccc(Cl)c2)c2ccccn2)cc(OC)c1OC`?
VDR inh: -1.3%

What do the screens show for `O=C1Nc2ccccc2C(O)(C(=O)N2CCCCC2)N1c1ccccc1` (stereo not drawn)?
VDR inh: 4.3%

How did CCN(CC(=O)Nc1ccc(NC(C)=O)cc1)C(=O)C1CC(=O)N(CCc2ccc(OC)c(OC)c2)C1 (stereo not drawn) do in these assays?
VDR inh: -9.6%

Results for Cc1cccc2cc(/C=N/Nc3ccc(C(=O)O)cc3)c(Cl)nc12 ?
VDR inh: 0.2%

Results for Cc1ccnc(NC(=O)Cn2ccc([N+](=O)[O-])n2)c1 ?
VDR inh: 2.6%

What do the screens show for `Cc1ccccc1C(=O)N1CCC(N2CCN(Cc3ccc(F)cc3)C(=O)C2=O)CC1`?
VDR inh: 9.2%

Results for CCCn1nnnc1NCc1cccc(OC)c1 ?
VDR inh: 2.5%

What do the screens show for `COc1cccc(-n2c(-c3ccco3)nc3c(cnn3-c3ccc(C)cc3)c2=O)c1`?
VDR inh: 8.2%

An excerpt. The share of hits here may be higher or lower than overall.
